Compound activity: PubChem BioAssay, National Center for Advancing Translational Sciences (NCATS)
D2 PAM: Beta-Arrestin HTS for Positive Allosteric Modulators of the Human D2 Dopamine Receptor: Potentiators | 360,000 compounds, 0.23% hits | DiscoveRx D2 beta-arrestin cells, luminescence, 90 min; 100% = 57 uM dopamine signal | AID 624464, 2012 | potentiation, % (concentration not given with the values); active = potentiation of 50% or more; inconclusive = 30% to 50%; inactive = 30% or less;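 further: tested on top of an EC20 dose of dopamine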
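D2 cells co-treated with compound plus 50 nM dopamine (EC20) for 90 min at 37 deg C to detect potentiation. Beta-arrestin recruitment was read as enzyme-fragment luminescence after 1 h at ambient temperature. Full response was set by 57 uM dopamine.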
Menin MLL FP FL: qHTS Assay for Inhibitors Targeting the Menin-MLL Interaction in MLL Related Leukemias: Competition With Fluorescein Labeled MLL-derived Peptide; Fluorescence polarization, fluorescein-MLL peptide displacement from menin; FP activity change, % at 61.4 µM; 290,000 tested, under 10 active; AID 1766, 2009; inconclusive = falling polarisation curve, or a change in total fluorescence; inactive = total fluorescence flat and polarisation flat or rising; no compound was filed as active; the % refers to the polarisation; negative = inhibition;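 further: % of control where 0% means no effect; inhibitors lower the polarisation; unlabelled MLL peptide was the positive control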
gsp ag: qHTS for Agonist of gsp, the Etiologic Mutation Responsible for Fibrous Dysplasia/McCune-Albright Syndrome: qHTS; gsp mutant cells, cAMP HTRF, 30 min; control for the full effect not named in the record; Potency, µM (doses to about 76.9 µM), without a hit: top-dose activation (cAMP increase), actives largely listed as activators; 340,000 compounds, 0.13% hits; AID 624287, 2012; active = well fitted activation curve with a large enough effect; inconclusive = small, poorly fitted or top-dose-only effect, or another doubt; inactive = no such curve, though single readings can be large or run the other way; cell line not stated here;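 further: phosphodiesterase inhibitor Ro 20-1724 added with compounds to block cAMP breakdown; potency means the concentration at half of the fitted maximal effect; nearly all actives have a fitted effect of over 60% in size; about a fifth of the inactives were tested at one dose only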
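Cells stably selected in G418 were plated at 2000/well, grown 16-24 hr, then given compounds in DMSO with the PDE inhibitor […] (300 uM solution added) for 30 min at 37C; cAMP was read by HTRF.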
ClpP mod: qHTS Assay for Activators of ClpP; ATP-dependent Clp protease proteolytic subunit (Bacillus subtilis (strain 168)), P80244; purified B. subtilis ClpP, FRET peptide cleavage, 20 min; Potency, µM (doses to about 57.5 µM), without a hit: top-dose activity change, negative = active; 340,000 compounds, 1.9% hits; active = well fitted falling curve with a large enough effect; inconclusive = small, poorly fitted or top-dose-only effect; inactive = no such curve, though single readings can be large or run the other way; further: potency means the concentration at half of the fitted maximal effect; the source files actives as falling curves though it sought activators and does not explain the sign; nearly all actives have a fitted effect of over 65% in size; many hits overshoot -100%
Target sequence (P80244 whole entry, looked up): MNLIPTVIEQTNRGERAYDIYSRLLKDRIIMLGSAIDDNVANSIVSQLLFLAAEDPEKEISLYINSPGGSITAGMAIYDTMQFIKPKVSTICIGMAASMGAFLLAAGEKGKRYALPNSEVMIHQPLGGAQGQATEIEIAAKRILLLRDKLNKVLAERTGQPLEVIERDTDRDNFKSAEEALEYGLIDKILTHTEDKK
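FRET quenching reversal measured ClpP activation: 10 microg/mL B. subtilis ClpP at pH 8 with the FRET-FV decapeptide, read at 430 nm after 320 nm excitation. The 20-min minus 0-min signal was scaled between DMSO/no-enzyme wells and ADEP (5.8 microM final).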
Sfp inh: qHTS Assay for Inhibitors of Bacillus subtilis Sfp phosphopantetheinyl transferase (PPTase) | 4'-phosphopantetheinyl transferase ffp (Bacillus subtilis), Q9F4F7 | Biochemical Sfp PPTase activity, qHTS | Potency, µM, for the others: max response, negative = inhibition, most hits filed as inhibitors | 310,000 compounds, 3.5% hits; active means well fitted inhibition curve with a large enough effect; inconclusive means small, poorly fitted or top-dose-only effect, or another doubt; inactive means no such curve, though single readings can be large or run the other way;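 further: the enzyme is Sfp with the accession as filed and its product quenches rhodamine fluorescence; potency means the concentration at half of the fitted maximal effect; 0% = enzyme reaction without inhibitor and -100% = no enzyme wells; top concentration of the series not given in the record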
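Compounds were incubated with enzyme (final 15 nM) for 15 min at room temperature before substrate addition started the reaction. Fluorescence at 525 nm excitation, 598 nm emission was recorded immediately and after 30 minutes.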
gsp antagonist: qHTS for Antagonists of gsp, the Etiologic Mutation Responsible for Fibrous Dysplasia/McCune-Albright Syndrome: qHTS; gsp-mutant cells, cAMP HTRF, 30 min; control for the full effect not named in the record; Potency, µM (top dose mostly 76.9 µM), without a hit: top-dose activity change, negative = inhibition, hits mostly inhibitors; 340,000 compounds, 0.4% hits; AID 624288, 2012; active = falling curve of any shape with a large fitted effect; inconclusive = falling curve, mostly with a smaller effect; inactive = flat or rising curve; cell line not stated here;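 further: intracellular cAMP measured with PDE inhibitor Ro 20-1724 present during compound exposure; potency means the concentration at half of the fitted maximal effect; on the % scale 0 is the no-effect control and ±100 the full control effect; nearly all actives have a fitted effect of over 65% in size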
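HTRF cAMP measurement after 30 min RT detection following 30 min, 37C compound treatment alongside […] (added as 300 uM solution) in G418-selected cells seeded at 2000/well and grown 16–24 h.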
TRPV1 PAM: HTS Assay for Compounds that Act as Potentiators of the Vanilloid Receptor 1 | Transient receptor potential cation channel subfamily V member 1 (Homo sapiens), Q8NER1 | TRPV1-expressing cells, Fluo-8 calcium influx, capsaicin EC20 potentiation; host cell line not named in the record; control for the full effect not named in the record | potentiation, % at 8.33 µM | 320,000 compounds, 0.02% hits; active means potentiation above 80%; inconclusive means 30% to 80%; inactive means below 30%; further: 0% is about no effect
Target sequence (Q8NER1 whole entry, looked up): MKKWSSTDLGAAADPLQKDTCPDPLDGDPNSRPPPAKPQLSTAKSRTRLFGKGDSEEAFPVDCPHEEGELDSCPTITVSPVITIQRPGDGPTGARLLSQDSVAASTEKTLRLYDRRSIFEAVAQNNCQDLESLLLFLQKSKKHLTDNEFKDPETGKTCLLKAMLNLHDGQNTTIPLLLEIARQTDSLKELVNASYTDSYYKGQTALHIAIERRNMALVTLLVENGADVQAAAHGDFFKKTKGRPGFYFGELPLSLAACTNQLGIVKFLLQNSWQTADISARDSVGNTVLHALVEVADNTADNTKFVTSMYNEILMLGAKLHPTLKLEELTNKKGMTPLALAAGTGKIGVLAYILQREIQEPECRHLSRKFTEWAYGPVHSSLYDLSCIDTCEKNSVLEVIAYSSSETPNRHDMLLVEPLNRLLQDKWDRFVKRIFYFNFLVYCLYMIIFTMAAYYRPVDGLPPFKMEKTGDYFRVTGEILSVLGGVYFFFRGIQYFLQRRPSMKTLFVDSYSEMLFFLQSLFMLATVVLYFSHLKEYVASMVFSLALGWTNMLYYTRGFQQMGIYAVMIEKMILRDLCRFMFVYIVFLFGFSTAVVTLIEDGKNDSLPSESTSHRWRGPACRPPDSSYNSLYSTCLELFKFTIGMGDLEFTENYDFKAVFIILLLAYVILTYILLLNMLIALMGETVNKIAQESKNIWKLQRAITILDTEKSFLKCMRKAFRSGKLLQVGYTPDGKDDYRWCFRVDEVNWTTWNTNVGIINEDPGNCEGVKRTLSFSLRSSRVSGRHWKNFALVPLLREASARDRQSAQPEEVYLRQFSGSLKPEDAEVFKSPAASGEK
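TRPV1-expressing cells were cultured overnight at 35.5C and loaded with Fluo-8 calcium dye for 40 to 90 min at room temperature. After a 10 s baseline, compound was added and calcium influx was read kinetically for 3 min (ex 480/em 520 nm).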
Numbers without * were called inactive; & = joins results of further samples; [ ] = dose if it differs, or a comment.

What do the screens show for `CC(OC(=O)c1cnccn1)C(=O)Nc1nc(-c2cccc([N+](=O)[O-])c2)cs1` (stereo not given)?
D2 PAM: 0; gsp ag: -1%; ClpP mod: -1.9%; gsp antagonist: -14%; TRPV1 PAM: -15

What do the screens show for `COc1ccc(NS(=O)(=O)c2cccc(Cl)c2)cc1S(=O)(=O)N1CCCCC1`?
D2 PAM: 9; Menin MLL FP FL: 1.1; gsp ag: 27%[15.4 µM]; ClpP mod: -1.7%; Sfp inh: -14%; gsp antagonist: -12%; TRPV1 PAM: -3

Results for CN(CC(=O)Nc1cccc(F)c1)C(=O)c1ccc2c(c1)CC(c1ccccc1)OC2=O (stereo not given) ?
D2 PAM: 3; gsp ag: 5%; ClpP mod: -9.3%; gsp antagonist: -13%; TRPV1 PAM: 0

Results for Cn1cnc(S(=O)(=O)N2CCN(c3ccccc3)CC2)c1 ?
D2 PAM: -5; Menin MLL FP FL: 2.3; gsp ag: 14%; ClpP mod: 2.3%; Sfp inh: 17%; gsp antagonist: 8%; TRPV1 PAM: 11

How did CC(=O)c1csc(CS(=O)(=O)c2ccccn2)n1 do in these assays?
D2 PAM: -13; Menin MLL FP FL: -0.3; gsp ag: inconclusive; ClpP mod: 0.9%; Sfp inh: 5%; gsp antagonist: 5%; TRPV1 PAM: 4

What do the screens show for `O=C(CCSc1ccccc1)NC1CCCC1`?
D2 PAM: -20; Menin MLL FP FL: -3.4; gsp ag: 4%; ClpP mod: -5.5%; Sfp inh: -32%; gsp antagonist: 1%; TRPV1 PAM: -2

How did COc1cccc(CNC(=O)C2CCN(c3ncnc4c3nc3n4CCCCC3)CC2)c1 do in these assays?
D2 PAM: -10; Menin MLL FP FL: 0.8; gsp ag: -11%; ClpP mod: -3.3%&-3.5%; Sfp inh: 12%; gsp antagonist: 10%; TRPV1 PAM: -10

How did Cc1nn(CCCC(=O)NCc2ccc(F)cc2)c(=O)c2nccn12 do in these assays?
D2 PAM: -3; Menin MLL FP FL: -3.0; gsp ag: inconclusive; ClpP mod: -0.7%; Sfp inh: 1%; gsp antagonist: 22%; TRPV1 PAM: -3

Results for O=c1[nH]c(C2CCCN(S(=O)(=O)c3ccccc3)C2)nc2c1nnn2Cc1cccc(Cl)c1 (stereo not given) ?
D2 PAM: 10; Menin MLL FP FL: 1.3; gsp ag: 2%; Sfp inh: -6%; gsp antagonist: -36%; TRPV1 PAM: 10

What do the screens show for `CCS(=O)(=O)N1CCN(S(=O)(=O)c2ccccc2)CC1`?
D2 PAM: -2; Menin MLL FP FL: 3.8; gsp ag: 23%; ClpP mod: 0.4%; Sfp inh: -3%; gsp antagonist: 5%; TRPV1 PAM: -2

What do the screens show for `CC(=O)C1C(c2ccc(F)c(F)c2)NC(=O)NC1(O)C(F)(F)F` (stereo not given)?
D2 PAM: 6; Menin MLL FP FL: 1.6; gsp ag: 12%; ClpP mod: -1.9%; Sfp inh: 13%; gsp antagonist: -6%; TRPV1 PAM: inconclusive

What do the screens show for `Cc1cc(OC(C)C(=O)N(Cc2cccs2)C2CCS(=O)(=O)C2)ccc1Cl` (stereo not given)?
D2 PAM: 2; Menin MLL FP FL: -1.6; gsp ag: -78%[inhibitor]; ClpP mod: -0.3%; Sfp inh: 6%; gsp antagonist: -13%; TRPV1 PAM: 1

What do the screens show for `CC1C(=O)N(Cc2ccccc2)c2ccccc2N1C(=O)c1ccccc1` (stereo not given)?
D2 PAM: -4; Menin MLL FP FL: 0.0; gsp ag: -18%; ClpP mod: 1.1%; Sfp inh: -6%; gsp antagonist: -21%; TRPV1 PAM: 1

How did O=C(CCCc1nc(-c2ccc(Cl)cc2)no1)Nc1cccnc1 do in these assays?
D2 PAM: 5; Menin MLL FP FL: 2.4; gsp ag: 1%; ClpP mod: -0.8%; Sfp inh: 18%; gsp antagonist: inconclusive; TRPV1 PAM: 25

What do the screens show for `O=C(Cn1cc2c(n1)CCCC2)NCCCN1CCN(c2ccccc2F)CC1`?
D2 PAM: -8; Menin MLL FP FL: 6.2; gsp ag: -21%; ClpP mod: -2.5%; Sfp inh: 17%; gsp antagonist: 9%

How did COc1cccc(-c2cn(-c3cccc(C(F)(F)F)c3)c(=S)[nH]2)c1 do in these assays?
D2 PAM: -1; Menin MLL FP FL: -12; gsp ag: 31%; ClpP mod: -2.9%; Sfp inh: -10%; gsp antagonist: -3%; TRPV1 PAM: -10

How did N#CCCN(C(=O)COc1ccc(C#N)cc1)c1ccc(F)cc1 do in these assays?
D2 PAM: -4; Menin MLL FP FL: -0.1; gsp ag: 20%; Sfp inh: 0%; gsp antagonist: 11%; TRPV1 PAM: 4

Results for COC(=O)C1=C(C(=O)OC)[C@@H]2Nc3ccccc3[C@@]23C[C@@H](C(=O)OC)N(C(=O)COCc2ccccc2)C3=N1 ?
D2 PAM: -11; Menin MLL FP FL: -4.4[11.7 µM]; gsp ag: -68%[inhibitor]; ClpP mod: -1.3%; Sfp inh: -6%; gsp antagonist: -7%

How did Cc1ccc(-n2c(SCC(=O)OC(C)C)nnc2-c2ccccn2)cc1 do in these assays?
D2 PAM: -3; Menin MLL FP FL: -1.2; gsp ag: -9%; ClpP mod: -2.6%; Sfp inh: -14%; gsp antagonist: -5%; TRPV1 PAM: -23

How did COc1ccc(NC(=O)/C(Cl)=C(/Cl)S(=O)Cc2ccc(C)cc2)cn1 (stereo not given) do in these assays?
Menin MLL FP FL: 5.5; Sfp inh: inconclusive; TRPV1 PAM: -8

What do the screens show for `CC(C(=O)NC(c1ccccc1)c1ccccc1)N1CCOCC1` (stereo not given)?
D2 PAM: -9; Menin MLL FP FL: -2.2; gsp ag: 4%[15.4 µM]; Sfp inh: 13%; gsp antagonist: 13%; TRPV1 PAM: 8

What do the screens show for `O=C(CC(Nc1ccccc1Cl)C(=O)O)c1ccccc1` (stereo not given)?
D2 PAM: -3; Menin MLL FP FL: 4.1; gsp ag: 18%[15.4 µM]; ClpP mod: -0.8%; Sfp inh: 4µM*; gsp antagonist: -37%; TRPV1 PAM: 9

How did CN(CC(O)COc1ccc(S(=O)(=O)N2CCOCC2)cc1)C1CCCCC1 (stereo not given) do in these assays?
D2 PAM: -7; Menin MLL FP FL: 4.1; gsp ag: -21%; ClpP mod: 0.3%; Sfp inh: 20%; gsp antagonist: 14%; TRPV1 PAM: 7

How did Cc1ccc(NC(=O)C2CC(=O)N(CCc3ccccc3)C2)c(C)c1 (stereo not given) do in these assays?
D2 PAM: -9; Menin MLL FP FL: -0.3; gsp ag: -22%[15.4 µM]; Sfp inh: 13%; gsp antagonist: -3%; TRPV1 PAM: 7

Results for O=C(Cn1ccsc1=NC(=O)c1ccco1)c1ccccc1 ?
D2 PAM: -18; Menin MLL FP FL: 3.4; gsp ag: -9%; ClpP mod: -1.5%; Sfp inh: 1%; gsp antagonist: -4%; TRPV1 PAM: 7

How did COc1ccccc1Nc1nc(C)cc(C)c1C(N)=O do in these assays?
D2 PAM: -3; Menin MLL FP FL: 10; gsp ag: -28%; ClpP mod: 0.7%; Sfp inh: 24%; gsp antagonist: -3%; TRPV1 PAM: 4

Results for Nc1ncc(-n2cncn2)c(-c2ccc(Cl)cc2)n1 ?
D2 PAM: 1; Menin MLL FP FL: 1.5; gsp ag: 0%; Sfp inh: 5%; gsp antagonist: -7%; TRPV1 PAM: -7

Results for COc1ccc(S(=O)(=O)N2CCOC23CCN(S(=O)(=O)c2ccc(F)cc2)CC3)cc1 ?
D2 PAM: -4; gsp ag: 0%[15.4 µM]; ClpP mod: inconclusive; gsp antagonist: -3%; TRPV1 PAM: -2

Results for COc1ccc(NC(=O)CC2SC(=Nc3ccccc3)NC2=O)c(OC)c1 (stereo not given) ?
D2 PAM: -9; Menin MLL FP FL: 0.5; gsp ag: -34%[inhibitor]; ClpP mod: -1.6%; Sfp inh: 19%; gsp antagonist: -4%; TRPV1 PAM: 4

Results for Brc1ccc(-c2nc3c4ccccc4ccn3c2Cc2ccccc2)cc1 ?
D2 PAM: 5; gsp ag: 19%; ClpP mod: -29%

Results for N#C/C(=C\c1ccccc1[N+](=O)[O-])C(=O)NCc1ccccc1 ?
D2 PAM: 3; Menin MLL FP FL: 13; gsp ag: -17%; Sfp inh: -8%; gsp antagonist: 4%; TRPV1 PAM: 0

Results for COc1ccc(NCc2cc3ccccc3[nH]c2=O)cc1 ?
D2 PAM: -11; Menin MLL FP FL: 3.8; gsp ag: 13%; ClpP mod: -21%; Sfp inh: 7%; gsp antagonist: -3%; TRPV1 PAM: 0

How did O=C(NC(Cc1ccccc1)C(=O)O)/C(=C\c1ccccc1F)NC(=O)c1ccccc1 (stereo not given) do in these assays?
D2 PAM: -5; Menin MLL FP FL: 1.3; gsp ag: 8%[15.4 µM]; Sfp inh: 11%; gsp antagonist: 3%; TRPV1 PAM: 5

What do the screens show for `Nc1c(-c2cccc([N+](=O)[O-])c2)nc2ccccn12`?
D2 PAM: 27; Menin MLL FP FL: 4.4; gsp ag: 1%; ClpP mod: -4.7%; Sfp inh: -17%; gsp antagonist: inconclusive; TRPV1 PAM: -1

Results for COc1ccc(NC(=O)N2C3CCCC2CC(NC(=O)c2ccccc2)C3)cc1 (stereo not given) ?
D2 PAM: -7; Menin MLL FP FL: 3.9; gsp ag: 10%; Sfp inh: 18%; gsp antagonist: 1%; TRPV1 PAM: -9
